# miR-21 FLuc = miR-21 reporter, rising signal; HeLa miR-21 FLuc reporter, luciferase, 48 h; Potency, µM (top dose mostly 38.3 µM), without a hit: at the highest dose reporter change, positive = more light; 340,000 tested, under 10 active; active = well fitted rising curve with a large enough effect; inconclusive = small, poorly fitted or top-dose-only effect; inactive = no such curve, though single readings can be large or run the other way;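 also: % of control where 0% means no effect; miR-21 action dims this reporter so a rising signal means less miR-21 action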
#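 HeLa cells stably expressing CMV-driven firefly luciferase with a downstream miR-21 binding sequence, endogenously expressing miR-21, were treated with titrations (up to about 40uM final) for 48 hours at 37 degree Celsius. Luciferase luminescence was read after lysis.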
# Rango release inh = prevents RanGTP from dissociating the Rango-importin beta complex; O95149+P62826; Biochemical FRET Rango-importin beta, RanGTP-induced dissociation; Potency, µM (highest dose often 46.1 µM), inactives show at the highest dose activity change, negative = inhibition; hit rate 0.071% among 340,000; active means falling FRET ratio curve, often poorly fitted, with flat reads before Ran was added; inconclusive means other falling curves, or compound fluorescence or quenching; inactive means flat or rising ratio curve;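 also: potency is read from the fitted curve at half-maximal effect; % of control where 0% means no effect; nearly all actives have a fitted effect of over 45% in size; -100% = wells without RanGTP and RCC1; the record marks most hits as doubtful in a second field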
#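 Rango FRET biosensor (snurportin-1 IBB flanked by N-terminal EYFP and C-terminal CFP10) at 0.1 uM, with 0.25 uM importin beta in PBS, 1mM DTT, 0.02% Tween-20, 0.1% BSA. 0.6 uM Ran, 2mM GTP and 0.2 uM RCC1 were then added for 45 min at room temperature. Inhibition read as loss of FRET rise.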
# Rango-impB inh = Rango-importin beta binding inhibition; Q14974; Rango CFP/YFP FRET sensor + importin beta, 45 min; Potency, µM (series often up to 92.2 µM), without a hit: top-dose inhibition of complex formation; hit rate 0.031% among 340,000; AID 540263; active = rising FRET ratio curve, often small or poorly fitted; inconclusive = mostly compound fluorescence or quenching in the first reads; inactive = flat curves in all reads;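 also: potency is read from the fitted curve at half-maximal effect; 0% = DMSO wells and 100% = buffer wells lacking importin beta; nearly all actives have a fitted effect of over 15% in size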
# Target sequence (Q14974 whole entry, looked up): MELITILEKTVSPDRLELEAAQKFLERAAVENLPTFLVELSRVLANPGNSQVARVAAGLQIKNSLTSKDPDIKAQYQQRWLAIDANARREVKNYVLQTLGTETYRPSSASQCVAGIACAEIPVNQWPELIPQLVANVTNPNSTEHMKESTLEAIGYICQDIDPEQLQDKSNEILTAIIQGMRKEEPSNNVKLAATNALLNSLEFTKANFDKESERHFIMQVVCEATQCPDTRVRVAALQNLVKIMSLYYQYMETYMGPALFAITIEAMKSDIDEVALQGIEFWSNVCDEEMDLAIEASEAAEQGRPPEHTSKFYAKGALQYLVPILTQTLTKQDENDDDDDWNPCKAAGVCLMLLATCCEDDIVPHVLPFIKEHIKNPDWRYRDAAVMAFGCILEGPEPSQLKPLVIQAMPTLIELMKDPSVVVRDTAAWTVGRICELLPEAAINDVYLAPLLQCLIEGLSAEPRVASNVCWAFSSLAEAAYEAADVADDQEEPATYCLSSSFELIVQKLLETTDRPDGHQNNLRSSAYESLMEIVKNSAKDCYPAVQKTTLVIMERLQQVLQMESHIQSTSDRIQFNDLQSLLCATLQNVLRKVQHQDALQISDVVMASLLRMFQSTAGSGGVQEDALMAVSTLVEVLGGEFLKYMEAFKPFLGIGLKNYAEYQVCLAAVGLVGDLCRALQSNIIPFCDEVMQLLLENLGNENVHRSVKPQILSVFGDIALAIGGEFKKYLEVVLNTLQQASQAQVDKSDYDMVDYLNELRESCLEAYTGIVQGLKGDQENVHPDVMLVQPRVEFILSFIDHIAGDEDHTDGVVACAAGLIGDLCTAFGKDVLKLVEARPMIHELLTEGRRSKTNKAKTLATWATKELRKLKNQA
#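 FRET biosensor Rango (snurportin 1 IBB between N-terminal EYFP and C-terminal Cerulean), 50 nM in PBS/1 mM DTT/0.02% Tween-20/0.1% BSA, preincubated 5 min RT with compound; 0.125 microM importin beta added, 45 min RT, CFP/YFP FRET ratio read.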
# GLA inh pH 4.5 = blocks human alpha-galactosidase A at pH 4.5; P06280; purified enzyme, 4-MU-alpha-Gal fluorescence, pH 4.5; activity change, negative = inhibition, % at 105 µM; 230,000 tested, under 10 active; AID 1467; inconclusive = small, poorly fitted or top-dose-only inhibition, or a rising curve; inactive = flat fitted curve, though single readings scatter; no compound was filed as active;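 also: 0% = full activity with enzyme and -100% = basal without enzyme; dose as in the result columns while the protocol names 77 µM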
# Numbers without * were called inactive; ? = inconclusive; · = no result given; & = joins results of further samples.
canonical_smiles	GLA inh pH 4.5	Rango-impB inh	miR-21 FLuc	Rango release inh
Cc1ccc(C2(CCNCc3ccco3)CCOC(C(C)C)C2)cc1 (stereo not drawn)	-11	1.1%	4%	-13%
Cc1cc2nc3c(nc2cc1C)C(O)=C3O	3	0.8%	6%	?
CCOC(=O)N1CCN(C(=O)c2ccc(CS(=O)(=O)c3ccc(OC)cc3)o2)CC1	0	0.8%	4%	-1%
Cc1cc(N2CCN(C)CC2)nc2ccc(NC(=O)c3cccnc3Cl)cc12	-2	-0.8%	-5%	-4%
NC(=O)C1CCN(C(=O)c2cccc(CN3C(=O)c4ccccc4C3=O)c2)CC1	·	-0.2%	·	-8%
Cc1ccc(Oc2c(F)c(F)nc(N3CCCC3)c2F)cc1	5	-3.3%	-10%	-18%
CC(C)c1cc(C(C)C)n2nc(N)nc2n1	8	0.3%	-24%	10%
CC1CCN(S(=O)(=O)c2cccc(C(=O)Nc3ccccc3)c2)CC1	-3	?	-2%	22%
COc1ccc(/C=C(\NC(=O)/C=C/c2ccco2)C(=O)NCCc2nc3ccccc3[nH]2)cc1	-7	0.3%	1%	0%
CN(C(=O)COC(=O)c1ccc2ccccc2n1)c1ccccc1	·	-4.3%	·	-6%
COc1cccc(C2(c3cccc(OC)c3)CC2C(=O)Nc2ccc(F)cc2)c1 (stereo not drawn)	-15	-0.2%	-6%	-6%
CC(C)(C)C(=O)CSc1nc2ccccc2o1	-1	0.0%	-56%	-5%
C/C(=N\NC(=O)c1cccc(F)c1)c1ccc(NC(=O)Cc2ccccc2)cc1	·	1.7%	-50%	2%
COc1cc([C@@H]2c3cc4c(cc3[C@@H](NC3CCN(Cc5ccccc5)CC3)[C@H]3COC(=O)[C@H]23)OCO4)cc(OC)c1O	-5	·	?	·
C[C@H](NC(=O)c1nc[nH]c1C(=O)NCCCCCNC(=O)OC(C)(C)C)C(=O)OC(C)(C)C	1	-0.5%	29%	17%

# Continued:
canonical_smiles	GLA inh pH 4.5	Rango-impB inh	miR-21 FLuc	Rango release inh
C/C(O)=c1/cnc2nc3ccccc3n2c1=O	5	4.5%	-16%	24%
CCC(C)n1[nH]c(=O)cc1N (stereo not drawn)	7	0.4%	-12%	6%
O=P(Cc1cccc[n+]1[O-])(c1ccccc1)c1ccccc1	4	2.9%	-1%	-6%
C=CCNC(=O)/C(C#N)=C/c1ccc(C)o1	-25	6.5%	-15%	0%
CCCCNC(=O)CC1SC(=NCC)N(CC)C1=O (stereo not drawn)	3	-0.2%	-7%	4%
COCC(C)n1c(SCC(=O)Nc2nccs2)nc2ccccc2c1=O (stereo not drawn)	·	0.2%	·	-13%
Nc1nnn(CC(=O)N/N=C/c2ccncc2)n1	-5	-1.2%	-4%	22%
Cc1ccc(NC(=O)CSc2nnc(C3CC3)n2N)cc1S(=O)(=O)N1CCOCC1	7	3.1%	-1%	-5%
CN(C)S(=O)(=O)c1cc(C(=O)NCCCn2ccc3ccccc32)ccc1Cl	-4	6.9%	1%	-7%
COc1ccccc1NS(=O)(=O)c1ccc(C)c(NS(=O)(=O)c2cc(C(=O)O)cc(C)c2C)c1	·	2.0%	-4%	-3%
COc1cc(C2C(C#N)=C(N)Oc3c2ccc2ccccc32)ccc1OCC(=O)Nc1cccc(C)c1 (stereo not drawn)	-1	?	1%	-12%
O=S(=O)(c1ccccc1)N(CC(O)Cn1c2ccccc2c2ccccc21)c1ccccc1 (stereo not drawn)	-4	-3.3%	?	-6%
N#CCSc1nc2sc3c(c2c(=O)n1C1CCCCC1)CCCC3	-3	3.4%	-7%	0%
COc1ccc(C2NC(c3ccc(OC)cc3)C([N+](=O)[O-])C(C)(C)C2[N+](=O)[O-])cc1 (stereo not drawn)	-9	3.2%	2%	2%
CCOC(=O)C1CN(S(=O)(=O)c2ccc(OC)cc2)c2cc(Cl)ccc2O1 (stereo not drawn)	·	4.4%	3%	16%

# 3 compounds already listed, arranged by the value under Rango release inh, high to low:
canonical_smiles	GLA inh pH 4.5	Rango-impB inh	miR-21 FLuc	Rango release inh
Nc1nnn(CC(=O)N/N=C/c2ccncc2)n1	-5	-1.2%	-4%	22%
CCOC(=O)C1CN(S(=O)(=O)c2ccc(OC)cc2)c2cc(Cl)ccc2O1 (stereo not drawn)	·	4.4%	3%	16%
COc1ccccc1NS(=O)(=O)c1ccc(C)c(NS(=O)(=O)c2cc(C(=O)O)cc(C)c2C)c1	·	2.0%	-4%	-3%

# (listing goes on)
canonical_smiles	GLA inh pH 4.5	Rango-impB inh	miR-21 FLuc	Rango release inh
COC(=O)c1cn(Cc2cccc(C)c2)nn1	11	3.3%	-11%	19%
O=C(CSc1nnc2c(n1)[nH]c1ccccc12)N1CCCCC1	·	2.2%	-13%	18%
O=C(Nc1ccc(OCC(=O)N2CCOCC2)cc1)c1cncc(Br)c1	2	-1.5%	15%	1%
CCc1ccc(OCCSc2nc3ccccc3n2CC(=O)O)cc1	·	-1.7%	0%	7%
CCOC(=O)C(=O)Nc1ccccc1C(=O)Nc1ccc(OC)cc1	-1	0.1%	-7%	4%
Cc1cccc(-n2c(C)nc3sccc3c2=O)c1	7	1.0%	-2%	-8%
CSc1nc2n(n1)C(C)C1=C(CCCC1=O)N2 (stereo not drawn)	20	-3.8%	10%	7%
O=C(NCCc1ccccc1)c1cccc([N+](=O)[O-])c1	-1	0.4%	-68%	0%
O=C(c1ccco1)N1CCN(S(=O)(=O)c2cccc(C(F)(F)F)c2)CC1	-3	-0.4%	-2%	3%
O=C(O)c1cccc(NC(=O)C2C3C=CC(C3)C2C(=O)OCC(F)(F)C(F)F)c1 (stereo not drawn)	0	-2.1%	-7%	-2%
Cc1nnc(N2CCc3ccccc3C2)[nH]c1=O	1	-0.2%	-1%	-4%
Cc1ccc2oc3c(c(=O)c2c1)C(c1ccc(F)cc1)N(CCCN1CCOCC1)C3=O (stereo not drawn)	-13	·	-16%	·
CC1CCCC(C)N1S(=O)(=O)c1ccc(Cl)cc1 (stereo not drawn)	·	-1.5%	-1%	-16%
Cn1c(=O)c2c(ncn2CC(=O)N/N=C/C=C/c2ccccc2)n(C)c1=O	5	-3.0%	-6%	-15%
COC(=O)c1cc(OC)c(OC)cc1NC(=O)CN1CCCCC1	0	1.8%	-6%	1%

# New compounds follow.
canonical_smiles	GLA inh pH 4.5	Rango-impB inh	miR-21 FLuc	Rango release inh
COc1ccc(Cl)cc1NC(=O)CSc1nncn1-c1cccnc1	-2	-0.1%	-5%	12%
N#CCC(=O)NCCCc1ccccc1	-6	4.0%	-3%	12%
Cc1ccc2nc(SCC(=O)NCC3CCCO3)c(C#N)cc2c1 (stereo not drawn)	3	-0.6%	-14%	?
COc1ccc(S(=O)Cc2ccc(C(=O)N3CCN(c4cccc(C)c4C)CC3)o2)cc1 (stereo not drawn)	·	-2.7%	22%&26%	0%
CNC(=O)/C(C#N)=C/c1cn(CC(=O)OC)c2ccccc12	-4	0.3%	3%	1%
COc1ccc(OCc2cc(C(=O)N3CCCN(C(C)=O)CC3)no2)c(Cl)c1	·	1.8%	-35%	-10%
Cn1nnc(NC(=O)CSc2ncn[nH]2)n1	4	3.6%	-3%	0%
Cc1ccc2nsnc2c1S(=O)(=O)N(Cc1cc2cccc(C)c2[nH]c1=O)CC1CCCO1 (stereo not drawn)	-1	-2.5%	3%	-14%
CCOC(=O)Nc1nnc(Cc2ccc(Cl)c(Cl)c2)s1	-3	1.4%	-15%	-5%
O=C(CCCCCCC(=O)Nc1ccccc1)NO	·	1.2%	·	-11%
COc1ccc(S(=O)(=O)N[C@@H](C)C(=O)OCC(=O)Nc2cc3oc4ccccc4c3cc2OC)cc1	-5	4.6%	-47%	-6%
NC(=O)c1cc2ccccc2oc1=NCc1ccccc1	-3	2.7%	-16%	-5%
Cc1ccc(C)c(C(=O)c2c(C)nc3sccn23)c1	-2	-2.3%	-22%	?
O=C(Cc1ccc(F)cc1)N(c1ccc(F)cc1)C1C=CS(=O)(=O)C1 (stereo not drawn)	7	-2.8%	4%	0%
CCOC(=O)Cn1ccc(O)c(Cc2ccc(Cl)cc2Cl)c1=O	-4	4.3%	1%	-12%

# (continued)
canonical_smiles	GLA inh pH 4.5	Rango-impB inh	miR-21 FLuc	Rango release inh
CCOC(=O)C1(CCc2ccccc2)CCN(C(=O)C2CCOCC2)CC1	-2	0.9%	-7%	7%
N#Cc1c(N)nc2c(c1-c1cccc(O)c1)CCCCCC2	-7	2.6%	3%	15%
CCOC(=O)C1CCN(C(=O)c2cc3c(=O)n4ccccc4nc3s2)CC1	·	?	-39%	?
O=[N+]([O-])c1cccc(-c2c[n+]3c(n2-c2ccccc2)SCC3)c1	?	4.5%	16%	-6%
Cc1nc2ccccc2n2c(-c3ccccc3)c3c(=O)n(C)c(=O)n(C)c3c12	-7	-4.5%	0%&-2%	-7%
CCOC(=O)C1=C(C)NC(=O)/C1=C\N(C)C	3	-2.0%	-6%	-2%
COC(=O)c1ccccc1SC1CC(=O)N(c2cccc(C)c2)C1=O (stereo not drawn)	1	1.3%	-3%	2%
COc1ccccc1C(=O)N/C(=C\c1ccc(Br)cc1)C(=O)NCCO	-3	4.5%	-1%	2%
Cc1nc(NC(=O)c2ccco2)sc1C(=O)Nc1ccc(Br)cc1	-5	4.4%	3%	7%
Cc1ccc(-c2csc(NC(=O)CCNC(=O)c3ccccc3Cl)n2)cc1	-17	?	-2%	6%
Cc1ccc(C)c(NC(=O)CSc2nc(C)cc(C)c2C#N)c1	9	0.9%	-8%	28%
O=[N+]([O-])c1cccc(Cl)c1NCCNS(=O)(=O)c1ccccc1	-2	-0.7%	-18%	0%
CCOc1ccc(NC(=O)c2sc3nc(N4CCOCC4)c4c(c3c2N)CCCC4)cc1	·	-3.8%	-1%	0%
COc1ccc(-c2noc(CN(C)C(=O)CCN3C(=O)[C@H]4CC=CC[C@H]4C3=O)n2)cc1	·	0.7%	4%	-12%
OC(COc1ccccc1)CN1CCCCCC1 (stereo not drawn)	8	-0.2%	-8%	8%

# Next part
canonical_smiles	GLA inh pH 4.5	Rango-impB inh	miR-21 FLuc	Rango release inh
Cc1cccc(CSCC(=O)NCc2ccc(S(N)(=O)=O)cc2)c1	-27	0.2%	-4%	12%
CCC(CC)=N/N=C/c1c(O)n(CC)c2cc(C3=NNC(=O)CC3)ccc12	3	?	3%	?
Cc1cc(=O)oc2c(C)c(OCC(=O)NCC3CCC(C(=O)O)CC3)ccc12 (stereo not drawn)	·	9.1%	0%	2%
CC(=O)c1cccc(N(CC(=O)Nc2ccc(F)cc2)S(C)(=O)=O)c1	0	0.3%	-28%	-7%
O=C(c1ccc(Cn2ccc([N+](=O)[O-])n2)cc1)N1CCN(Cc2ccccc2)CC1	-10	0.1%	16%	35%
Cc1ccc(S(=O)(=O)Cn2nnnc2C(CC(C)C)N2CCN(C(=O)c3ccco3)CC2)cc1 (stereo not drawn)	-8	-1.4%	-4%	?
CCN1CCc2c(OCC(=O)Nc3cccc(C)c3)cccc2C1=O	-27	-1.9%	-4%	0%
Cc1ccc(NC(=O)CSc2nn(-c3ccc(Cl)cc3)c(=S)s2)cc1S(=O)(=O)N(C)C	0	0.0%	-1%	-4%
COc1ccc(CCNC(=O)CC2SC(=NCCC(C)C)NC2=O)cc1OC (stereo not drawn)	-5	2.4%	-8%	-4%
N#CC1(NC(=O)COC(=O)Cn2[nH]c(=O)c3ccccc3c2=O)CCCCC1	·	-1.6%	·	-3%
Nc1cccc2c(O)cc(S(=O)(=O)O)cc12	·	?	·	?
Cc1cccc2cc3ccccc3nc12	·	3.2%	·	-7%
CCCc1nnc(NC(=O)CCC(=O)N2CCN(c3ccccn3)CC2)s1	0	0.6%	1%	0%
CCNC(=O)CN(c1ccc(CC)cc1)S(C)(=O)=O	-3	0.4%	-2%	-14%
O=C(COC(=O)c1c(Cl)cccc1Cl)NC1CCCCC1	6	1.6%	-25%	8%
CC(CC(=O)Nc1ccc(F)cc1)S(=O)(=O)c1ccc2c(c1)NC(=O)CO2 (stereo not drawn)	·	3.1%	1%	6%

# Compound activity as filed in PubChem BioAssay.

# Only part of the results is shown; count on the stated rates, not on these rows.
